D2 ag: human D2 receptor agonism in beta-arrestin assay | DiscoveRx PathHunter D2 beta-arrestin, luminescence, 90 min; 100% = 57 uM dopamine signal | activation, % (no concentration beside the values) | 0.084% of 360,000 active | AID 624465; in the data active = activation above about 40%; inconclusive = about 15% to 40%; inactive = below about 15%; further: compound concentration not given in the record; the text of the record calls up to 30% inactive
Target sequence (P14416 whole entry, looked up): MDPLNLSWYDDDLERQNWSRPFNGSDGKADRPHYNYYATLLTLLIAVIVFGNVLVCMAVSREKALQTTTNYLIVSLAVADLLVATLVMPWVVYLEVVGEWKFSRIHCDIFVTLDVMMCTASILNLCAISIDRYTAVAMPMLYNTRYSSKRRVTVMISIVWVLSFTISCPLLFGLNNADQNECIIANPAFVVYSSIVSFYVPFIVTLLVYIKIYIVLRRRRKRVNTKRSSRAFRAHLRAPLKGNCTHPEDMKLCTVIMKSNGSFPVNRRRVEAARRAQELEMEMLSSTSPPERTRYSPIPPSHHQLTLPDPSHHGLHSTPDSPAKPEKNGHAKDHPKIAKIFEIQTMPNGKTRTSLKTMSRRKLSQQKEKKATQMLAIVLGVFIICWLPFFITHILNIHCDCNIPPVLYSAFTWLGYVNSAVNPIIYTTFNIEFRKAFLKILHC
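Agonist mode: compounds alone added to overnight-plated D2 PathHunter cells for 90 min at 37 C, with 57 uM final dopamine (EC100) defining full response. Beta-arrestin recruitment detected by chemiluminescent reagent, read after 1 h at ambient temperature.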
PINK1 modulator: PINK1 expression modulation. PINK1 immunofluorescence, high-content cytometry, 24 h. Potency, µM (series often up to 76.6 µM), without a hit: at the highest dose activation (PINK1 increase), usual class: activators. 0.2% of 410,000 active. AID 624263; active = well fitted activation curve with a large enough effect; inconclusive = small, poorly fitted or top-dose-only effect; inactive = flat fitted curve, though single readings scatter; cell line not stated here;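 further: potency means the concentration at half of the fitted maximal effect; % of control where 0% means no effect; nearly all actives have a fitted effect of over 65% in size; a mitochondrial uncoupler was the plate control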
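Measures PINK1 amount and localization on or inside mitochondria by immunofluorescence. Stable cells get compounds at 5 concentrations for 24 hours before fixation and staining; CCCP controls included.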
D2 PAM: potentiates the human D2 dopamine receptor allosterically; DiscoveRx D2 beta-arrestin cells, luminescence, 90 min; 100% = 57 uM dopamine signal; potentiation, % (concentration not given with the values); 0.23% of 360,000 active; AID 624464; active = potentiation of 50% or more; inconclusive = 30% to 50%; inactive = 30% or less;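 further: compound concentration not given in the record; tested on top of an EC20 dose of dopamine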
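PathHunter beta-arrestin assay in DiscoveRx D2 cells. Compounds were added with an EC20 of dopamine (50 nM final) for 90 min at 37 deg C. Luminescence was read 1 h after detection reagent, with 57 uM dopamine as the EC100 control.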
TRPML1 inh: inhibitors of human TRPML1 channel; 0.02% of 390,000 active; Q9GZU1; activity change, negative = inhibition, % (test concentration not listed); AID 624415; TRPML1-inducible cells, Ca2+ dye fluorescence, FDSS; hits give low values; inhibition of EC80 agonist-evoked calcium signal; in the data active means activity change below about -50%; inconclusive means about -30% to -50%; inactive means above about -30%;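 further: stimulus is agonist 54-4 at its EC80 concentration; on the % scale 0 is the no-effect control and ±100 the full control effect; compound concentration not given in the record; the text of the record puts the active cut at -80%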
Target sequence (Q9GZU1 whole entry, looked up): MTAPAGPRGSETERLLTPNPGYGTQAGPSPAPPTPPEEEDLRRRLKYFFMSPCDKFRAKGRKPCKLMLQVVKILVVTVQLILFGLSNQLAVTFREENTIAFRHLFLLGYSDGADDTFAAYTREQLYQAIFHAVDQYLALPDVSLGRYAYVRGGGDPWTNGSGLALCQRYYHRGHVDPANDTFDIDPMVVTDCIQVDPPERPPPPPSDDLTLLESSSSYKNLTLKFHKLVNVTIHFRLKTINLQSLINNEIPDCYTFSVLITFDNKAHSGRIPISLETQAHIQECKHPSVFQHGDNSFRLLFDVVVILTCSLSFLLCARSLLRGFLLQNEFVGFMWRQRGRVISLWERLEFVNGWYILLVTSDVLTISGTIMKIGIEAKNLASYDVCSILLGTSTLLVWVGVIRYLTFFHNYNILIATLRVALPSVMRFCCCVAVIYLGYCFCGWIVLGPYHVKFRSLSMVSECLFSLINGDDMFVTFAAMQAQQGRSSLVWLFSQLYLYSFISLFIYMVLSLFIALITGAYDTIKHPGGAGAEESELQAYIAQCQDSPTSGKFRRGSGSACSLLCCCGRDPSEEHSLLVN
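TRPML1-DL cells, Tet-induced overnight (~16 h, 37 °C) at 1,500 cells/well, were loaded with Ca8 no-wash dye plus quencher for 45-90 min at room temperature. Compounds were pinned during FDSS kinetic reading; agonist 54-4 at EC80 (4 uM final) then added.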
TRPML1 ag: agonists of human TRPML1 channel; 0.12% of 410,000 active; TRPML1-expressing cells, Ca2+ dye fluorescence, FDSS; host cell line not named in the record; reference of the full effect not given here; Q9GZU1; activation, % (test concentration not listed); in the data active = activation above about 50%; inconclusive = about 30% to 50%; inactive = below about 30%; further: 0% is about no effect; the text of the record puts the active cut at 80%
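Cells: TRPML1-DL, 1X Tet inducer, ~16 h at 37 degrees C/5% CO2. Dye: ABD Ca8 no-wash + quencher, 45-90 min RT. Read: 10 s baseline, compound add, 110 s agonist phase; 54-4 EC80 (4uM final), 110 s antagonist phase.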
Six1-Eya2 inh: inhibitors of human Six1/Eya2 interaction; AlphaScreen GST-Six1/His-Eya2 binding, biochemical; hits give low values; control for the full effect not named in the record; 0.56% of 360,000 active; Q15475+O00167; AID 651725; activity change, % (test concentration not listed); in the data active = activity change below about -65%; inconclusive = about -30% to -65%; inactive = above about -30%; further: on the % scale 0 is the no-effect control and ±100 the full control effect; compound concentration not given in the record
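Homogeneous AlphaScreen proximity assay pairing GST-Six1 with His-tagged Eya2 (added as 5X mix: 250 nM and 500 nM) in 50 mM Tris pH 8.0, 300 mM NaCl, 1 mM TCEP. Glutathione donor and nickel acceptor beads; 1 h, 37 °C, dark.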
Numbers without * were called inactive; u = inconclusive; x = not tested or not shown; & = joins results of further samples; [ ] = remark or other dose.

SMILES	D2 ag	PINK1 modulator	D2 PAM	TRPML1 inh	TRPML1 ag	Six1-Eya2 inh
CCC(=NCc1ccc2c(c1)OCO2)c1c(O)n(C2CCCCC2)c(=O)[nH]c1=O	-0.1	2.3%	-4	15	0.9	-9
CN1CCCN(C(=O)COc2ccc(F)cc2F)CC1	0.7	0.8%	-8	19	0.3	0
COc1ccc(N2C(=O)/C(=C/c3ccc(C)o3)C(=O)NC2=S)c(OC)c1	5.4	0.0%	-17	x	x	6
Cc1ccccc1OCCN=Cc1c(O)n(C)c(=O)n(C)c1=O	-0.5	-1.1%	2	20	-0.1	-2
CCOC(=O)C1(c2ccccc2)CCN(CCC(=O)Nc2ccccc2OC)CC1	-2.5	0.8%	-24	-12	2.1	-11
Cc1nc2cc(C(F)(F)F)ccc2n1C1CCN(Cc2nnnn2CCc2ccccc2)CC1	-1.5	-0.5%	-8	11	2.6	3
CN(C)c1cccc2c(C#N)ccc(N(C)C)c12	2.0	-0.1%	16	42	-0.1	-13
CC12CCC3C(CC=C4CC(O)CCC43C)C1C/C(=C\c1ccccc1F)C2=O (stereo not given)	0.7	9.7%	-8	59	0.6	-13
CCCC12CN3CC(CCC)(CN(C1)C3c1ccccn1)C2=O (stereo not given)	-1.3	1.3%[38.3 µM]	7	7&-2	-0.4&-0.5	-15
CC(C)[C@H]1C(=O)O[C@H](C(C)C)C(=O)N(C)[C@@H](C(C)C)C(=O)O[C@H](C(C)C)C(=O)N(C)[C@@H](C(C)C)C(=O)O[C@H](C(C)C)C(=O)N1C	x	u	-37	x	x	1
CCN1CCN(Cc2cc(OC)c3c(c2)OCO3)CC1	-4.9	0.0%	-3	-2	-0.4	7
Cc1ccccc1CN1CCCN(Cc2ccc(Cl)cc2)S1(=O)=O	0.9	-0.4%	-6	84	4.4	8
CC1CNCCN1c1ccc(Cl)cc1 (stereo not given)	-4.0	-5.4%	-14	-5	1.4	22
Cc1cccn2c(=O)c3c(nc12)N1CCCCCC1C1(C3)C(=O)N(C)C(=O)N(C)C1=O (stereo not given)	-6.5	-3.3%	-9	10	0.7	0
CCCCn1c(=O)c(C(=O)Nc2ccccc2F)c(O)c2ccccc21	9.3	11%	7	-5	-0.6	5
CN1Cc2cnnn2-c2ccccc2C1c1ccccc1 (stereo not given)	-1.0	-1.7%	-1	-13	3.3	3
Oc1ccc(CC2(N3CCCC3)CCCCC2)cc1	0.2	2.1%	-4	x	x	4
CC(=NCc1ccc(F)cc1)c1c(O)n(C)c(=O)n(C)c1=O	2.7	-0.9%	18	0	-0.3	2
COc1ccc2[nH]c(C)c(CCN3CCC(=O)C(C)C3C)c2c1 (stereo not given)	-1.9	1.2%	-8	11	-0.2	3
COc1cccc(C(c2nnnn2-c2ccc3c(c2)OCCO3)N2CCC3(CC2)C(=O)NCN3c2ccccc2)c1OC (stereo not given)	5.5	2.9%	5	x	-0.3	-15
O=C(Cc1ccccc1)Oc1ccc(N2C(=O)C3CCCCC3C2=O)cc1 (stereo not given)	-0.2	3.8%	-2	-4	0.2	-8
Cc1ccc(Cn2nc(C)c(C=O)c2Cl)cc1	-0.3	3.5%	3	0	2.3	5
CCOC(=O)CC(SP1(=S)OCC2(CCCCO2)C(C2CCCCO2)O1)C(=O)OCC (stereo not given)	-5.5	-1.8%	-7	-12	3.8	6
CN(C)C(=O)Oc1ccc(-c2nnco2)cc1	4.5	2.3%	2	4	0.5	4
O=C1NC(=O)C(Cc2ccccc2)(Cc2ccccc2)C(=O)N1Cc1ccccc1	-1.4	-3.9%	-16	-13	3.4	0
COC(=O)C1=C(c2ccc(OC(F)(F)F)cc2)C[C@@H]2CC[C@H]1N2C(=O)NCc1ccc(F)cc1	-1.2	u	-5	-16	2.1	9
O=C1CN=C(c2cccs2)c2c(sc3c2CCCC3)N1	-5.7	3.4%[38.3 µM]	-12	-7	0.7	-3
CN1CCN(c2ncnc(Cl)c2N)CC1	-4.2	-0.4%	-12	-14	1.1	3
COc1cc2c(cc1OC)C13CCN4CC5=CCOC6CC(=O)N2C1C6C5C3C4 (stereo not given) (tested in a mixture with another compound)	-2.7	1.3%	-8	52	-0.2	-3
CC12C(C(=O)O)C1(c1ccccc1)C2C(=O)O (stereo not given)	2.7	3.3%	-8	-9	0.6	-1
CN1C(=O)/C(=C\c2ccc(Br)s2)C(=O)NC1=S	3.2	1.3%	-1	-4	-0.3	u
N#CC1=C(N)Oc2c(c(=O)sc3ccccc23)C1c1ccncc1 (stereo not given)	2.3	1.5%	11	-6	0.4	8
COc1ccc(C(=O)N2CCC3(CC2)OCCO3)cc1	1.3	-0.8%	-4	-4	0.3	6
COc1ccc(-n2c(C)nc3ccccc3c2=O)c([N+](=O)[O-])c1	0.4	1.9%	3	7	0.1	3
OCC12CO[C@@H]3c4ccccc4[C@H](OC1)N32 (stereo not given in full)	-1.5	-1.1%	-5	26	2.5	1
CCC1=Nc2cc(C(=O)N3CCC4(CC3)OCCO4)ccc2Sc2ccccc21	-8.1	0.8%	-6	-6	-1.3	-5
CCOC(=O)c1cnc(SCc2ccc(Cl)c(Cl)c2)nc1N1CC1	0.2	9.1%	12	-6	0.1	-7
O=C1N[C@@H](Cc2ccccc2)C(=O)N2[C@H]1C[C@H]1c3ccccc3N(OOSc3ccccc3)[C@H]12	-0.6	4.5%	-6	22	0.7	1
OCCNc1c2c(nc3ccccc13)CCCC2	-4.1	1.2%	-22	3	3.5	-3
O=S1(=O)N(Cc2ccccc2Cl)CCCN1Cc1ccccc1Cl	x	-0.6%	x	64	1.3	x
COc1cc(C2c3cc4c(cc3CC3COC(=O)C32)OCO4)cc(OC)c1O (stereo not given)	4.9	1.7%	6	2	0.5	3
COC(=O)C1=C(c2ccc(F)cc2F)C[C@@H]2CC[C@H]1N2C(=O)NCc1ccc2c(c1)OCO2	-2.7	2.4%	-17	9	-0.1	-2
O=C(C[N+]12CCC(CC1)C(CO)C2)c1ccc([N+](=O)[O-])cc1 (stereo not given)	-3.2	-0.5%	2	47	0.9	-5
COC(=O)C1=C(c2ccccc2)C[C@@H]2CC[C@H]1N2C(=O)NC1CC1	-2.3	-1.7%	-8	-6	-0.7	-1
O=C1NC(=O)C(CCc2ccncc2)(CCc2ccncc2)C(=O)N1Cc1ccc(F)cc1	-2.8	-0.1%	-8	28	1.0	4

7 compounds already listed, arranged by length of the SMILES, highest first:
SMILES	D2 ag	PINK1 modulator	D2 PAM	TRPML1 inh	TRPML1 ag	Six1-Eya2 inh
O=C1N[C@@H](Cc2ccccc2)C(=O)N2[C@H]1C[C@H]1c3ccccc3N(OOSc3ccccc3)[C@H]12	-0.6	4.5%	-6	22	0.7	1
O=C1NC(=O)C(CCc2ccncc2)(CCc2ccncc2)C(=O)N1Cc1ccc(F)cc1	-2.8	-0.1%	-8	28	1.0	4
CCC1=Nc2cc(C(=O)N3CCC4(CC3)OCCO4)ccc2Sc2ccccc21	-8.1	0.8%	-6	-6	-1.3	-5
COc1ccc(-n2c(C)nc3ccccc3c2=O)c([N+](=O)[O-])c1	0.4	1.9%	3	7	0.1	3
N#CC1=C(N)Oc2c(c(=O)sc3ccccc23)C1c1ccncc1 (stereo not given)	2.3	1.5%	11	-6	0.4	8
CN1C(=O)/C(=C\c2ccc(Br)s2)C(=O)NC1=S	3.2	1.3%	-1	-4	-0.3	u
COc1ccc(C(=O)N2CCC3(CC2)OCCO3)cc1	1.3	-0.8%	-4	-4	0.3	6

Record cards, as listed above. Screens in order: D2 ag, PINK1 modulator, D2 PAM, TRPML1 inh, TRPML1 ag, Six1-Eya2 inh
N#CC1=C(N)Oc2c(c(=O)sc3ccccc23)C1c1ccncc1 (stereo not given) is entered as 2.3, 1.5%, 11, -6, 0.4, 8
OCC12CO[C@@H]3c4ccccc4[C@H](OC1)N32 (stereo not given in full) is entered as -1.5, -1.1%, -5, 26, 2.5, 1
COC(=O)C1=C(c2ccc(F)cc2F)C[C@@H]2CC[C@H]1N2C(=O)NCc1ccc2c(c1)OCO2 is entered as -2.7, 2.4%, -17, 9, -0.1, -2

(more compounds)
SMILES	D2 ag	PINK1 modulator	D2 PAM	TRPML1 inh	TRPML1 ag	Six1-Eya2 inh
CC1CCN(C(CC(=O)c2ccccc2)C(=O)c2ccccc2)CC1 (stereo not given)	-9.1	-1.7%	-26	-7	0.3	10
CC(C)CCOC(=O)c1c(N)n(CC2CCCO2)c2nc3ccccc3nc12 (stereo not given)	-7.6	-0.6%	-26	8	1.5	23
COC(=O)C1=C(c2ccc(F)cc2OCc2ccccc2)C[C@@H]2CC[C@H]1N2C(=O)NCc1ccc(Cl)cc1	2.4	-0.5%	-4	51	1.6	3
Cc1cc(=O)oc2cc(OCC(=O)N3C[C@H]4C[C@@H](C3)c3cccc(=O)n3C4)c(Cl)cc12	-4.3	-0.7%	-23	x	x	1
CC(C)N1C(=O)/C(=C/C=C/c2ccco2)C(=O)N(Cc2ccco2)C1=O	-1.0	3.3%	-1	-12	2.7	u
CN(C)c1ccc(/C=C2/C(=O)NC(=O)N(Cc3ccco3)C2=O)cc1	1.1	5.5%	5	0	-0.3	-1
CN1C(=O)N(C)C(=O)C2(Cc3cc(NC(=O)c4ccccc4Cl)ccc3N3CCCC32)C1=O (stereo not given)	3.9	-1.7%	-7	-18	-0.9	-5
Oc1cccc2nc3ccccc3nc12	-5.3	0.3%	-15	x	x	u
N#CCCn1cc(C(=O)O)c(-c2cccc([N+](=O)[O-])c2)n1	0.5	4.0%	-6	10	0.3	1
C[N+](C)(C)CC#CCN1CCCC1=O	-3.6	-0.7%	-13	5	3.0	3
O=C1NC(=O)N(CCc2ccc(F)cc2)C(=O)/C1=C/c1ccco1	-1.6	4.6%	-2	4	2.1	u
Cc1ccc2c(c1)N(CCC(=O)N1CCC3(CC1)OCCO3)C(=O)C(C)O2 (stereo not given)	-3.6	-1.9%	0	-1	-0.2	0
C/C(CC(c1ccccc1)c1c(O)c2ccccc2oc1=O)=N\NC(N)=S (stereo not given)	-0.5	4.8%	-3	-9	-0.5	2
COc1cccc2c1C(=O)c1c(O)c3c(c(O)c1C2=O)CC(O)(C(C)=NO)CC3OC1CC(N)C(O)C(C)O1 (stereo not given)	-1.0	-1.7%	-2	14	2.9	u
CSc1ccc(C(=O)C2CCCN(Cc3ccn[nH]3)C2)cc1 (stereo not given)	-1.7	0.5%	-12	-8	1.0	8
COc1cc2c(cc1OC)[C@@]13CCN4CC5=CCO[C@H]6CC(=O)N2[C@H]1[C@H]6[C@H]5C[C@H]43	3.0	1.5%	4	x	x	-2
CC(C)Cn1cc(C(=O)N2CCC3(CC2)OCCO3)c2c3ccccc3n(C)c2c1=O	-1.5	-2.2%[38.3 µM]	1	2	-0.3	-1
Cn1c(=O)n(C)c2cc(CNCCc3ccccc3F)ccc21	x	3.7%	x	8	-0.3	x
N[C@@H](Cc1c[nH]c2ccccc12)c1nnc(SCc2ccc(F)cc2)o1	-2.6	-1.0%[38.3 µM]	-4	40	-0.5	5

High-throughput results: PubChem BioAssay, National Center for Advancing Translational Sciences (NCATS)

These rows are one share of the data; the hit share may differ from the screen's.
